TRPML1 blocker: qHTS for Inhibitors of the Human Mucolipin Transient Receptor Potential 1 (TRPML1); Mucolipin-1 (Homo sapiens), Q9GZU1; TRPML1-inducible cells, Ca2+ dye fluorescence, FDSS; hits give low values; inhibition of EC80 agonist-evoked calcium signal; activity change, negative = inhibition, % (no concentration beside the values); 0.02% of 390,000 active; in the data active means activity change below about -50%; inconclusive means about -30% to -50%; inactive means above about -30%;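 further: stimulus is agonist 54-4 at its EC80 concentration; on the % scale 0 is the no-effect control and ±100 the full control effect; compound concentration not given in the record; the text of the record puts the active cut at -80%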
Target sequence (Q9GZU1 whole entry, looked up): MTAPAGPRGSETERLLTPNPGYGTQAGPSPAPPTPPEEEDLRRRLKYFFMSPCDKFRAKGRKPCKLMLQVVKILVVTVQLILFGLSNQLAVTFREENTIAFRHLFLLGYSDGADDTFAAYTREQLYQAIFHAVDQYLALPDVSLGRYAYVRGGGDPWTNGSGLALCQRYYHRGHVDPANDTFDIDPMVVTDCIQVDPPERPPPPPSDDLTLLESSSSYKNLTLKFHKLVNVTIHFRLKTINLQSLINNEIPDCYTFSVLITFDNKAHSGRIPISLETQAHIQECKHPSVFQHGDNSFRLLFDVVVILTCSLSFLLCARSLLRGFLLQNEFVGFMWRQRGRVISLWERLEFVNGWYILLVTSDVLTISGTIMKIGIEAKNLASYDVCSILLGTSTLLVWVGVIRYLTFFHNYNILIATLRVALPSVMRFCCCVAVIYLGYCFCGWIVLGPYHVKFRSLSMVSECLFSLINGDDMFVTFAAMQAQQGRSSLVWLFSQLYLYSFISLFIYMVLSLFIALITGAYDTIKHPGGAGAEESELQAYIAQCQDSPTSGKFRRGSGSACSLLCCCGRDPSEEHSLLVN
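Tet-induced TRPML1-DL cells loaded with Ca8 no-wash calcium dye were read kinetically on FDSS. Compound addition was followed by EC80 agonist 54-4 (4 uM final); inhibition was read over 110 s.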
TRPML1 agonist: qHTS for Agonists of the Human Mucolipin Transient Receptor Potential 1 (TRPML1); AID 624414, 2012; TRPML1-expressing cells, Ca2+ dye fluorescence, FDSS; host cell line not named in the record; reference of the full effect not given here; 0.12% of 410,000 active; activation, % (test concentration not listed); in the data active = activation above about 50%; inconclusive = about 30% to 50%; inactive = below about 30%; further: 0% is about no effect; the text of the record puts the active cut at 80%
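Cells: TRPML1-DL, 1X Tet inducer, ~16 h at 37 degrees C/5% CO2. Dye: ABD Ca8 no-wash + quencher, 45-90 min RT. Read: 10 s baseline, compound add, 110 s agonist phase; 54-4 EC80 (4uM final), 110 s antagonist phase.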
Starred values were filed as active, the others as inactive; ? = inconclusive. This is a subset, so the mix of outcomes need not match the whole.

SMILES | TRPML1 blocker | TRPML1 agonist
CCOc1ccc(CCNC(=O)c2cn(C)c3ccc(S(=O)(=O)N4CCCCC4)cc3c2=O)cc1OCC | 6 | 1.3
O=C(CSc1nc2c([nH]c3ccccc32)c(=O)n1-c1ccc(F)cc1)Nc1ccc2c(c1)OCO2 | -2 | 2.0
O=c1oc2ccccc2cc1-c1cn2cc(Cc3ccc(Br)cc3)sc2n1 | -17 | 0.9
CCOc1ccccc1-c1noc(CSc2nnc(-c3ccncc3)n2-c2ccc(F)cc2)n1 | 13 | 2.3
Cc1ccc(Cl)cc1NC(=O)C(C)n1nc(-c2ccccc2)ccc1=O (stereo not given) | 7 | 1.4
Clc1ccc2c(c1)-n1cc(-c3ccccc3)nc1CO2 | -2 | -0.7
CC1CCN(S(=O)(=O)c2ccc3c(c2)CCN3C(=O)Nc2ccccc2Br)CC1 | -2 | 1.2
CCN1C(=O)C(Cc2nc3ccccc3c(=O)n2-c2cccc(C)c2)c2ccccc21 (stereo not given) | 15 | 1.5
O=C(Nc1nnc(S(=O)(=O)N2CCCc3ccccc32)s1)c1cccc(F)c1 | -1 | -0.1
Cc1ccc(Cl)cc1N1CCN(CCCNC(=O)C2COc3ccccc3C2)CC1 (stereo not given) | 2 | 0.6
COc1ccc(Cl)cc1NC(=O)c1cc(S(=O)(=O)N2CCC(C)CC2)cn1C | -10 | 0.5
Cc1ccc(CNc2ncnc3c2cnn3-c2ccc(Cl)cc2)cc1 | 15 | 0.7
COc1ccc(-c2cc(OC(=O)c3ccccc3)c3c(C)oc(C)c3c(=O)c2)cc1OC | 1 | -0.8
O=C(Nc1ccc2nc(SCC(=O)N3CCCC3)sc2c1)c1cccc(Cl)c1 | 18 | 2.7
Cc1cc(C)c(NC(=O)Cn2c(=O)n(CC(=O)NCc3ccccc3Cl)c(=O)c3sccc32)c(C)c1 | 12 | 0.9
CCN(CC)CCOC(=O)c1ccc(Nc2c3c(nc4ccccc24)CCC3)cc1 | -2 | -0.7
CCCSc1ncnc2c1c(-c1ccccc1)cn2-c1ccccc1OC | -4 | 0.3
Cc1ccc2nc(Cl)c3cc(C(=O)N4CCCC(C)C4)sc3c2c1 (stereo not given) | 37 | 1.9
CCOc1ccc(C(=O)N2CCCCC2CCN2CCOCC2)cc1 (stereo not given) | -30 | 0.4
COc1ccccc1CNC(=O)c1cnc2sc(N3CCOCC3)nn2c1=O | -5 | 0.1
O=C(Nc1cccc(C(F)(F)F)c1)c1ccc2c(c1)nnn2C1CCCC1 | 18 | 1.6
CCOc1ccc(CC(=O)Nc2cccc(-c3nc4cccnc4s3)c2C)cc1 | -14 | -0.2
COC(=O)c1scc(-c2ccccc2)c1S(=O)(=O)Nc1ccc(C)c(Cl)c1 | 28 | 0.8
COc1ccc(NCc2cc3cc4c(cc3n(CC(=O)Nc3ccc(C)cc3C)c2=O)OCO4)cc1 | -10 | 6.4
Cc1ccc(NC(=O)Cn2c(=O)cc(-c3ccccc3)c3c(C)nn(C)c32)c(Cl)c1 | 26 | 1.7

Two of the compounds above, as comma-separated lines.
SMILES,TRPML1 blocker,TRPML1 agonist
COc1ccc(-c2cc(OC(=O)c3ccccc3)c3c(C)oc(C)c3c(=O)c2)cc1OC,1,-0.8
O=C(Nc1ccc2nc(SCC(=O)N3CCCC3)sc2c1)c1cccc(Cl)c1,18,2.7

Next records.
SMILES | TRPML1 blocker | TRPML1 agonist
Cc1ccccc1/C=C(\C#N)c1nc(-c2ccc(Cl)cc2)cs1 | -13 | -0.3
CCCOc1ccc(C(=O)Nc2nonc2-c2ccc(OCC)cc2)cc1 | -5 | 0.9
Cc1ccc(NC(=O)CCC(=O)N2CCSc3ccccc32)cc1 | -1 | -1.0
Cc1cccc(Cc2cnc(NC(=O)C3Cc4ccc(C)cc4C(=O)O3)s2)c1 (stereo not given) | -3 | 0.7
Cc1nc2ccc(S(=O)(=O)N(C)CC(=O)Nc3ccc(Br)c(C)c3)cc2s1 | -4 | 3.3
Cc1ccc(CNC(=O)c2sc3nc[nH]c(=O)c3c2C)cc1 | 46 | 0.8
CCCn1c2ccccc2c2cnn(CC(=O)NCCc3cc(OC)ccc3OC)c(=O)c21 | 6 | 4.6
Cc1nc2sc(C(N)=O)c(N)c2c(-c2ccc(Br)cc2)c1C(=O)Nc1ccc(Cl)cc1 | 4 | -1.0
CN(C(=O)c1ccc2c(c1)N(Cc1ccccc1F)C(=O)c1ccccc1S2(=O)=O)C1CCCCC1 | -8 | -0.4
CCOC(=O)c1cccc(NC(=O)C(CC(C)C)N2Cc3ccccc3C2=O)c1 (stereo not given) | ? | 3.9
CCC(C)NC(=O)c1cccc(NC(=O)c2nsc3ccccc23)c1 (stereo not given) | 32 | 2.3
Cc1cccc(-c2nc3c(cnn3-c3ccccc3)c(=O)n2-c2ccc(Cl)cc2)c1 | 2 | 1.8
COc1cc(C2Oc3nc(SC)nnc3-c3ccccc3N2C(C)=O)cc(Cl)c1OC (stereo not given) | 12 | -0.3
COC(=O)c1c(C)oc2ccc(N(C(=O)c3ccncc3)S(=O)(=O)c3c(C)cc(C)cc3C)cc12 | 52 | -0.7
O=C(CN1C(=O)C2CCCCN2c2ccc(C(=O)N3CCCC3)cc21)NCc1ccccc1F (stereo not given) | 13 | 0.1
COc1ccc(-c2cc(C(F)(F)F)n3ncc(-c4ccccc4)c3n2)cc1 | 30 | 1.4
CCc1cnc2c(c1SCC(=O)c1ccc(OC)cc1)c(=O)n(C)c(=O)n2C | 40 | 1.6
COC(=O)c1sc(NC(=O)/C=C/c2ccc(OC)c(OC)c2)c(C(=O)OC)c1C | 14 | -0.7
O=C(Nc1noc2ccccc12)c1ccc(F)cc1 | -1 | 0.2
Cc1ccc(N(C)S(=O)(=O)c2ccc3[nH]cc(C(=O)O)c(=O)c3c2)cc1C | -22 | 0.6
O=C(O)c1ccc(NC(=O)c2ccc(Br)c(S(=O)(=O)N3CCCC3)c2)cc1 | 6 | -0.4
Cc1cc(Br)ccc1NC(=O)COc1cc(=O)n(C)c2ccccc12 | -13 | 1.2
COCCCNC(=O)CCc1c(C)nc2cc(-c3ccc(Cl)cc3)nn2c1C | 1 | -0.5
CC(C)c1ccc(S(=O)(=O)N2CCN(Cc3cccc(F)c3)CC2)cc1 | -6 | 22
O=C(Nc1ccc(-c2cc(C(F)(F)F)nn2-c2ccccc2)cc1)c1cccc(F)c1 | 30 | 2.8
The listing continues.
SMILES | TRPML1 blocker | TRPML1 agonist
COc1ccc(NC(=O)c2c(NCc3ccc(C)o3)sc3c2CCC(C)C3)c(OC)c1 (stereo not given) | -3 | 0.0
COC(=O)c1c(-c2ccc(Cl)cc2)noc1N1CCN(c2ccccc2OC)CC1 | 12 | -0.1
Cc1ccc(C)c(NC(=O)c2cnc3sc(N4CCOCC4)nn3c2=O)c1 | 2 | -0.1
Cc1ccccc1C(=O)Nc1nnc(S(=O)(=O)N2CCc3ccccc32)s1 | -8 | -0.4
Cc1ccc(C(=O)NCC(c2cccnc2)N2CCc3ccccc32)cc1C (stereo not given) | -7 | 1.3
COc1ccc(OCC(=O)Nc2c(C(=O)N3CCN(c4ccccc4)CC3)oc3ccccc23)cc1 | -13 | -0.1
Cc1cccc(NC(=O)CN2C(=O)c3cccnc3Oc3ccc(Cl)cc32)c1C | -1 | 3.0
Cc1ccc(S(=O)(=O)Cc2ccc(C(=O)NCCc3ccc(Cl)cc3)o2)cc1 | 6 | -0.3
CCOc1ccc(C(=O)Nc2cc(-c3nc4ccccc4s3)ccc2OC)cc1 | -8 | 0.5
Cc1c(C(=O)OCc2ccccc2)[nH]c2c1C(=O)CC(c1ccc(N(C)C)cc1)C2 (stereo not given) | 1 | -1.0
Cc1cccc2cc(CN(C(=O)c3cccc(Cl)c3)c3ccccc3)c(=O)[nH]c12 | 4 | -0.4
CCC(=O)N1c2ccccc2CC1C(=O)NCc1ccccc1C (stereo not given) | -14 | 0.3
COc1ccc(N2CCN(CC(O)COc3ccc(C(C)(C)C)cc3)CC2)cc1 (stereo not given) | -4 | -0.9
COCCCNc1nc2c(c(=O)n(C)c(=O)n2C)n1Cc1ccccc1 | -13 | 0.7
CC(C)NC(=O)C1CCN(C(=O)N2CC(C)Oc3ccccc32)CC1 (stereo not given) | 7 | -0.5
CC(=O)N(Cc1cccnc1)c1nc2c(C)cc(C)cc2s1 | 10 | 1.7
CCN1CCN(c2csc3ccc(C)cc3c2=O)CC1 | 9 | 0.3
O=S(=O)(NCC(c1ccco1)S(=O)(=O)c1ccccc1)c1cc(F)ccc1F (stereo not given) | 27 | 0.9
CCOC(=O)C(Cc1c[nH]c2ccccc12)NC(=O)COc1ccc(Cl)c(C)c1 (stereo not given) | 41 | 1.9
Cc1cc(C)cc(OCC(=O)Nc2nc3c(s2)CC(C(C)(C)C)CC3)c1 (stereo not given) | -8 | ?
CCN(CC)c1nc(-c2ccc(C(C)(C)C)cc2)nc2ccccc12 | -26 | 0.1
Cc1ccc(NC(=O)c2c(C)oc3ccc(O)c(CN4CCOCC4)c23)cc1 | 30 | -1.1
CNS(=O)(=O)c1cn(CC(=O)Nc2ccc(C)c(N(C)C)c2)cc1S(=O)(=O)NC | -15 | -0.1
O=C(O)c1cccc(Nc2ncnc3scc(-c4ccccc4)c23)c1 | 27 | 0.8
CC(C)NC(=O)CN1C(=O)c2cccnc2Sc2ccccc21 | -8 | 1.3
New compounds follow:
SMILES | TRPML1 blocker | TRPML1 agonist
COc1ccc(S(=O)(=O)NCCSc2nnnn2-c2ccccc2)cc1 | 1 | -0.9
Cc1ccc(Cn2c(SCc3ccc(C(=O)NCCc4ccccc4)cc3)nc3ccncc32)cc1 | 43 | 1.5
Cc1ccc(OCC(=O)Nc2cc3nn(-c4ccccc4)nc3cc2C)cc1 | 43 | -0.2
CCCCOc1ccc(C(=O)Nc2ccc3c(c2)N(C(C)=O)CCC3)cc1 | 29 | 0.1
O=C(CSc1nc(-c2ccccc2)[nH]c1-c1ccccc1)Nc1ccc2c(c1)OCO2 | 2 | 2.8
O=C(CN1C(=O)C2CCCCN2c2ccc(C(=O)N3CCCC3)cc21)NCc1ccc(F)cc1 (stereo not given) | -28 | -0.2
Cn1c2c(c(=O)n(C)c1=O)C(c1cccc(O)c1)CC(=O)N2 (stereo not given) | 7 | -0.4
O=C(Nc1ccc2c(c1)N(C1CCCC1)C(=O)c1ccccc1S2)c1cccc(F)c1 | 8 | 1.0
CCc1c(CN2CCN(c3ccccc3F)CC2)csc1C | -6 | 0.8
Nc1c(C(=O)Nc2cccc(Cl)c2)sc2nc3c(cc12)CN(Cc1ccccc1)CC3 | 20 | 3.1
Cc1ccc(-c2c3c(=O)n(C)c(=O)n(C)c3c3c(C(F)(F)F)nc4ccccc4n23)cc1 | 5 | 2.1
CCOCCn1ccc2c(OCC(=O)NCc3ccc(F)cc3)cccc2c1=O | -17 | -0.7
CCOC(=O)c1[nH]c2ccccc2c1NC(=O)c1ccccc1OC | 1 | 1.7
Cc1ccccc1CNC(=O)Cn1c(C)c2cnn(-c3ccccc3)c(=O)c2c1C | -10 | -0.4
CCOC(=O)c1cccc(NC(=O)CCc2c(C)nn(-c3ccc(N4CCCC4)nn3)c2C)c1 | 6 | 0.1
CCOc1ccc(C2c3c(oc4ccccc4c3=O)C(=O)N2Cc2ccc3c(c2)OCO3)cc1 (stereo not given) | 3 | 0.2
CCOC(=O)C1=C(CS(=O)(=O)c2c(C)cc(C)cc2C)NC(=O)NC1c1cccc(OC)c1 (stereo not given) | 4 | -0.3
CC(=O)N1CCc2cc(S(=O)(=O)CCC(=O)N3CCN(c4cccc(C)c4C)CC3)ccc21 | 4 | -0.3
O=C(Cn1c(SCCOc2ccccc2)nc2ccccc21)N1CCOCC1 | 9 | 0.7
CCn1cc(C(=O)NCCc2ccccc2)c(=O)c2cc(S(=O)(=O)N3CCc4ccccc4C3)ccc21 | 21 | -0.3
COc1cc(NC(=O)c2nc(-c3ccc(Cl)cc3)n3c2CCCCC3)cc(OC)c1OC | -15 | -0.3
CCc1c(C)nc2nncn2c1Nc1ccc(C)c(F)c1 | -7 | -0.1
CCOc1ccc(NC(=O)C(C)n2c(=O)cc(C)c3c(C)nn(-c4ccccc4)c32)cc1 (stereo not given) | -16 | -0.1

Molecules above containing a thiophene ring, fused or not, in the order listed:
SMILES | TRPML1 blocker | TRPML1 agonist
Cc1cc(C)c(NC(=O)Cn2c(=O)n(CC(=O)NCc3ccccc3Cl)c(=O)c3sccc32)c(C)c1 | 12 | 0.9
Cc1ccc2nc(Cl)c3cc(C(=O)N4CCCC(C)C4)sc3c2c1 (stereo not given) | 37 | 1.9
COC(=O)c1scc(-c2ccccc2)c1S(=O)(=O)Nc1ccc(C)c(Cl)c1 | 28 | 0.8
Cc1ccc(CNC(=O)c2sc3nc[nH]c(=O)c3c2C)cc1 | 46 | 0.8
Cc1nc2sc(C(N)=O)c(N)c2c(-c2ccc(Br)cc2)c1C(=O)Nc1ccc(Cl)cc1 | 4 | -1.0
COC(=O)c1sc(NC(=O)/C=C/c2ccc(OC)c(OC)c2)c(C(=O)OC)c1C | 14 | -0.7
COc1ccc(NC(=O)c2c(NCc3ccc(C)o3)sc3c2CCC(C)C3)c(OC)c1 (stereo not given) | -3 | 0.0
O=C(O)c1cccc(Nc2ncnc3scc(-c4ccccc4)c23)c1 | 27 | 0.8
CCc1c(CN2CCN(c3ccccc3F)CC2)csc1C | -6 | 0.8
Nc1c(C(=O)Nc2cccc(Cl)c2)sc2nc3c(cc12)CN(Cc1ccccc1)CC3 | 20 | 3.1

Bioassay records: PubChem, National Center for Advancing Translational Sciences (NCATS)
